# High-throughput results from PubChem.
# Menin MLL FP FL: inhibitors of human menin-MLL interaction, wild-type MLL peptide; Fluorescence polarization, fluorescein-MLL peptide displacement from menin; 290,000 tested, under 10 active; FP activity change, % at 61.4 µM; inconclusive = falling polarisation curve, or a change in total fluorescence; inactive = total fluorescence flat and polarisation flat or rising; no compound was filed as active; the % refers to the polarisation; negative = inhibition;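 also: % of control where 0% means no effect; inhibitors lower the polarisation; unlabelled MLL peptide was the positive control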
# gsp antagonist: antagonizes gsp, the McCune-Albright syndrome mutation; gsp-mutant cells, cAMP HTRF, 30 min; control for the full effect not named in the record; Potency, µM (top dose mostly 76.9 µM), inactives show at the highest dose activity change, negative = inhibition, most hits filed as inhibitors; hit rate 0.4% among 340,000; active = falling curve of any shape with a large fitted effect; inconclusive = falling curve, mostly with a smaller effect; inactive = flat or rising curve; cell line not stated here;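 also: intracellular cAMP measured with PDE inhibitor Ro 20-1724 present during compound exposure; potency is read from the fitted curve at half-maximal effect; % is scaled to controls: 0 for no effect and ±100 for the full control effect; nearly all actives have a fitted effect of over 65% in size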
#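 G418-selected cells were plated in DMEM/10% FBS for 16-24 h at 37C, then treated with compounds plus the PDE inhibitor […] (300 uM solution added) for 30 min at 37C. Intracellular cAMP was measured by HTRF after 30 min lysis at room temperature.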
# Sfp inh: Sfp phosphopantetheinyl transferase inhibition; Biochemical Sfp PPTase activity, qHTS; Potency, µM, for inactives: max response, negative = inhibition, most hits filed as inhibitors; hit rate 3.5% among 310,000; active = well fitted inhibition curve with a large enough effect; inconclusive = small, poorly fitted or top-dose-only effect, or another doubt; inactive = no such curve, though single readings can be large or run the other way;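 also: the enzyme is Sfp with the accession as filed and its product quenches rhodamine fluorescence; potency is read from the fitted curve at half-maximal effect; 0% = enzyme reaction without inhibitor and -100% = no enzyme wells; top concentration of the series not given in the record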
#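 After 15 min at room temperature with compound, 15 nM Sfp received 5 uM rhodamine-CoA plus 12.5 uM BHQ-2-ybbR (50 mM Hepes pH 7.6, 10 mM MgCl2). Rate came from the fluorescence difference over 30 min, ex 525/em 598 nm.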
# ClpP mod: qHTS Assay for Activators of ClpP. Potency, µM (series often up to 57.5 µM), inactives show at the top dose activity change, negative = active. ATP-dependent Clp protease proteolytic subunit (Bacillus subtilis (strain 168)), P80244. purified B. subtilis ClpP, FRET peptide cleavage, 20 min. hit rate 1.9% among 340,000. AID 651965, 2013; active = well fitted falling curve with a large enough effect; inconclusive = small, poorly fitted or top-dose-only effect; inactive = no such curve, though single readings can be large or run the other way; also: potency is read from the fitted curve at half-maximal effect; the source files actives as falling curves though it sought activators and does not explain the sign; nearly all actives have a fitted effect of over 65% in size; many hits overshoot -100%
# Target sequence (P80244 whole entry, looked up): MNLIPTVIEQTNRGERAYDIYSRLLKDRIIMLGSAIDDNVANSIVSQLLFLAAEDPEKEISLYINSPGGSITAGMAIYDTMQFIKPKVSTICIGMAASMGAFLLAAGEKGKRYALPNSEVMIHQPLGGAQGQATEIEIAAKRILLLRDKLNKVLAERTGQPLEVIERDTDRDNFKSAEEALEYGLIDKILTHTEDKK
#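 FRET quenching reversal measured ClpP activation: 10 microg/mL B. subtilis ClpP at pH 8 with the FRET-FV decapeptide, read at 430 nm after 320 nm excitation. The 20-min minus 0-min signal was scaled between DMSO/no-enzyme wells and ADEP (5.8 microM final).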
# gsp agonist: gsp mutant agonism. gsp mutant cells, cAMP HTRF, 30 min; control for the full effect not named in the record. Potency, µM (titrated, usually from 76.9 µM), without a hit: at the highest dose activation (cAMP increase), actives largely listed as activators. hit rate 0.13% among 340,000; active = well fitted activation curve with a large enough effect; inconclusive = small, poorly fitted or top-dose-only effect, or another doubt; inactive = no such curve, though single readings can be large or run the other way; cell line not stated here;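 also: phosphodiesterase inhibitor Ro 20-1724 added with compounds to block cAMP breakdown; potency is read from the fitted curve at half-maximal effect; nearly all actives have a fitted effect of over 60% in size; about a fifth of the inactives were tested at one dose only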
#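 Cells in DMEM/10% FBS with G418 were pretreated with compounds in DMSO plus […] (300 uM stock) for 30 min at 37C. cAMP was measured by HTRF (cAMP-d2 plus anti-cAMP antibody-K) after 30 min at room temperature.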
# TRPML1 blocker: inhibitors of human TRPML1 channel; Q9GZU1; TRPML1-inducible cells, Ca2+ dye fluorescence, FDSS; active compounds read low; inhibition of EC80 agonist-evoked calcium signal; activity change, negative = inhibition, % (test concentration not listed); hit rate 0.02% among 390,000; AID 624415; in the data active means activity change below about -50%; inconclusive means about -30% to -50%; inactive means above about -30%;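 also: stimulus is agonist 54-4 at its EC80 concentration; % is scaled to controls: 0 for no effect and ±100 for the full control effect; compound concentration not given in the record; the text of the record puts the active cut at -80%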
#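 TRPML1-DL cells, Tet-induced overnight (~16 h, 37 °C) at 1,500 cells/well, were loaded with Ca8 no-wash dye plus quencher for 45-90 min at room temperature. Compounds were pinned during FDSS kinetic reading; agonist 54-4 at EC80 (4 uM final) then added.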
# TRPV1 potentiator: potentiators of human vanilloid receptor 1 (TRPV1). Q8NER1. TRPV1-expressing cells, Fluo-8 calcium influx, capsaicin EC20 potentiation; host cell line not named in the record; control for the full effect not named in the record. AID 540277. hit rate 0.02% among 320,000. potentiation, % at 8.33 µM; active means potentiation above 80%; inconclusive means 30% to 80%; inactive means below 30%; also: 0% is about no effect
# Target sequence (Q8NER1 whole entry, looked up): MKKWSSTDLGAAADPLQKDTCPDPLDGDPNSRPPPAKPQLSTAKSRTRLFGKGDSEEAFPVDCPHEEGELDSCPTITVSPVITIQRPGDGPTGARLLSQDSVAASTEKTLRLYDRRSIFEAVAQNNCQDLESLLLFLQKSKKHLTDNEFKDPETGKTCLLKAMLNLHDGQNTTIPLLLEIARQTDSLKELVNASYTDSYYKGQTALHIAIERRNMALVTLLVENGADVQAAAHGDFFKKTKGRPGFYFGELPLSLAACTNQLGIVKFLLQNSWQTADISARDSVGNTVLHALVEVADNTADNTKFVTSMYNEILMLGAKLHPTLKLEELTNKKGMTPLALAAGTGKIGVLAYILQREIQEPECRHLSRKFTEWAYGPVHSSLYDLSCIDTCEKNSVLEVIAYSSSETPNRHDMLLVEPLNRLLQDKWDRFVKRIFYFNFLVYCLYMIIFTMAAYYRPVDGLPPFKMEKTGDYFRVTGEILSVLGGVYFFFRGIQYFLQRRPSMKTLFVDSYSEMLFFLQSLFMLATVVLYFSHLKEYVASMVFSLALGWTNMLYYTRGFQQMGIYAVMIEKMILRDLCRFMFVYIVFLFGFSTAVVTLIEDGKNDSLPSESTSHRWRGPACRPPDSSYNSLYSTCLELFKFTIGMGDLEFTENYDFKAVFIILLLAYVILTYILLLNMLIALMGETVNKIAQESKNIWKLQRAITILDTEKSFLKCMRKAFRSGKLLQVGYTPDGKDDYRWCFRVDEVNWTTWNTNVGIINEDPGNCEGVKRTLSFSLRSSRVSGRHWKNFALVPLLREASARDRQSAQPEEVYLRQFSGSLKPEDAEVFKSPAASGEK
#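 TRPV1-expressing cells were cultured overnight at 35.5C and loaded with Fluo-8 calcium dye for 40 to 90 min at room temperature. After a 10 s baseline, compound was added and calcium influx was read kinetically for 3 min (ex 480/em 520 nm).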
# Active calls of the source: *; ? = inconclusive; / = not tested or not shown; & = joins results of further samples; [ ] = dose if it differs, or a comment.
SMILES,Menin MLL FP FL,gsp antagonist,Sfp inh,ClpP mod,gsp agonist,TRPML1 blocker,TRPV1 potentiator
C=COCCNC(=O)Nc1ccc(Cl)c(Cl)c1,0.7,0.2%,11.4%,-2.7%,38.7%,8.7,-4.4
COc1ccc(NC(=O)CCCNC(=O)c2ccc(Cl)cc2)cc1OC,0.8,14.7%,1.9%,-1.0%,17.5%,/,-9.0
COc1ccc(NC(=O)NCc2ccccn2)c(OC)c1,-0.8,1.6%,14.4%,0.6%,-9.9%,-2.7,3.0
CCCOc1cccc(C(=O)N(Cc2ccco2)C2CCS(=O)(=O)C2)c1 (stereo not given),1.0,-17.1%,-3.3%,-1.3%,14.5%,-7.5,7.8
Cc1cc(C)n(CC(=O)N/N=C/c2c[nH]c3ccccc23)n1,4.7,14.2%,-7.9%,-0.1%,-0.9%[15.4 µM],0.2,-18.8
C[C@H](CO)N1C[C@H](C)[C@@H](CN(C)Cc2ccc(-c3ccccc3)cc2)Oc2c(NC(=O)Nc3ccc4c(c3)OCO4)cccc2C1=O,/,?,/,-27.5%,/,6.2,/
COCCn1c(=S)[nH]c2cc(C(=O)N3CCc4ccccc4C3)ccc2c1=O,8.2,-9.8%,10.8%,-0.9%,-5.2%[15.4 µM],-9.3,7.7
CCn1cc(C(=O)O)c(=O)c2cc(F)c(N3CCN(S(=O)(=O)c4ccc5c(c4)OCCO5)CC3)cc21,-2.3,-3.7%,10.0%,13.5%,-0.2%,-27.7,-5.0
COC(=O)c1cn[nH]c1NC(=S)Nc1ccc(Cl)c(Cl)c1,-0.6,?,56.2µM*,-0.8%,25.0%,21.0,-5.2
Cc1ccc(NC(=O)CSc2nnc(C)c(=O)n2N)cc1,0.4,-33.7%,13.9%,/,17.9%[15.4 µM],9.1,4.8
Cc1cc(Cl)ccc1OCC(=O)N1CCN(c2ncccn2)CC1,1.4,-9.9%,18.4%,-3.0%,1.1%[15.4 µM],4.9,1.0
Cn1c(=O)c2[nH]c(CNCc3ccccc3Cl)nc2n(C)c1=O,4.4,4.4%,-12.3%,-11.1%,14.1%,4.7,9.2
CCOC(=O)c1[nH]c2ccccc2c1NC(=S)Nc1cc(C)ccc1C,-11.9,-14.9%,39.8µM*,?,?,18.1,-2.6
O=c1c2[nH]cnc2n(-c2ccc(F)cc2)c(=O)n1Cc1ccccc1,1.7,5.6%,4.3%,-10.6%,?,/,-8.3
CCC1(c2ccc(F)cc2)NC(=O)N(CC(=O)N2CC(=O)Nc3ccccc32)C1=O (stereo not given),/,9.8%,/,-2.7%,-13.8%,-18.7,8.7
Cc1ccccc1-c1nc(CS(=O)(=O)CC(=O)NC2CCCC2)c(C)o1,-2.1,-4.1%,13.9%,-2.3%,-8.2%,-5.4,-9.8
COC(=O)c1cc(C(=O)Nc2nnc(CC(C)(C)C)s2)cc([N+](=O)[O-])c1,3.1,?,?,-0.7%,-17.8%,28.7,11.4
CCCc1ccc(OCc2ccc(C(=O)N3CCSCC3)o2)cc1,-1.9,-18.1%,-4.8%,-0.6%,19.8%,16.7,-16.0
COc1cc(CC(=O)O)ccc1OCc1ccccc1,2.7,0.0%,20.9%,/,-1.2%,1.8,-20.4
CCOC(=O)c1ccc(N2C=C(C(=O)OC)C(c3cccc(O)c3)C(C(=O)OC)=C2)cc1,0.2,-13.8%,6.4%,4.3%,4.9%,30.9,9.4
Cc1ccc(OCc2nnc(SCc3ccc(C#N)cc3)n2-c2ccc(C)cc2)cc1,3.0,-12.7%,17.7%,-0.8%,7.2%,15.6,1.2
COCCCNS(=O)(=O)c1ccc(OC)c(Cl)c1Cl,-0.6,5.6%,12.7%,-4.5%,-31.6%[inhibitor],-2.8,4.3
Cc1c(C(C)C)c(=O)n(-c2ccc(S(=O)(=O)NC3CCCCC3)cc2)n1C,0.0,-14.4%,13.1%,/,-19.2%,19.5,-15.6
CCOC(=O)c1c(C)[nH]c(C)c1C(=O)COC(=O)c1ccc(S(=O)(=O)N(CC)CC)cc1,-0.6,?,6.4%,4.2%,3.8%,-2.9,14.8
Cc1ccc(N2CC(C(=O)N3CCOCC3)CC2=O)cc1Cl (stereo not given),1.9,3.8%,-0.5%,/,8.6%,-14.2,-28.4

# Following part:
SMILES,Menin MLL FP FL,gsp antagonist,Sfp inh,ClpP mod,gsp agonist,TRPML1 blocker,TRPV1 potentiator
O=C1CCC(=O)N1c1ccc(S(=O)(=O)N2CCCC2)cc1,-1.2,-18.8%,22.4%,1.6%,-4.1%,-28.9,-18.4
Cc1cc([N+](=O)[O-])ccc1NC(=O)Nc1ccc(F)cc1F,-0.2,-14.5%,4.9%,?,-9.1%[15.4 µM],-8.8,-9.0
COc1ccc2[nH]c3c(=O)n(CCCCC(=O)NCCC(C)C)c(=S)[nH]c3c2c1,-2.7,3.7%,15.0%,7.9%,8.5%,23.6,-5.3
Cc1cccc(C2NC(=O)c3c(sc(C)c3C)N2)c1O (stereo not given),3.3,-11.4%,89.1µM*,-5.2%,13.1%,-8.9,18.7
Cc1ccc(NS(=O)(=O)c2ccc(C(=O)NNC(=O)c3ccccc3O)cc2)cc1,/,-13.0%,/,-0.2%,-10.3%,1.6,6.7
CCN1C(=NCCCCO)N[C@@H](c2ccccc2)C(C(=O)OC)=C1C,-1.5,/,14.4%,/,/,/,3.5
COc1ccccc1N1CCN(c2nnc(-c3ccc(F)cc3)c3ccccc23)CC1,-1.6,-12.3%[15.4 µM],0.3%,-2.2%,16.4%,5.3,-4.7
O=C(OCC(=O)N(CCc1ccccc1)Cc1ccccc1)c1cccc(S(=O)(=O)N2CCOCC2)c1,/,-19.4%,/,-1.0%,7.1%,10.8,/
COc1ccccc1NC(=O)NNC(=O)C(C)Oc1ccc2ccccc2c1 (stereo not given),2.1,0.9%,18.7%,-0.3%,-15.1%,30.0,5.3
Cc1cccc2c1[nH]c1nc(N/N=C\c3ccco3)nnc12,1.7,/,-22.5%,/,/,/,-7.3
COc1cc(/C=C/C(=O)N(C)c2ccccc2C(=O)O)cc(OC)c1OC,7.0,5.8%,11.5%,-4.1%,-56.1%[inhibitor],53.9,4.6
COc1cccc(NC(=O)c2oc3ccccc3c2NC(=O)c2ccc3c(c2)OCO3)c1,0.6,-26.7%,13.2%,?,-0.3%,-6.4,-8.9
COc1ccccc1CNC(=O)c1ccc(NC(=O)CC2SC(N3CCCC3)=NC2=O)cc1 (stereo not given),/,7.6%,/,2.8%,2.2%,7.1,/
CCOc1ccc(NC(=O)c2ccccc2NC(=O)CN2CCCCCC2)cc1,/,-1.5%,/,/,-9.7%[15.4 µM],6.7,-7.4
COc1ccc(CCN2C(=O)CS/C2=N\NC(=O)c2ccc(C(C)(C)C)cc2)cc1OC,3.6,-3.4%,28.4%,-3.0%,-0.6%,-0.9,-3.3
O=C(c1cc2cc([N+](=O)[O-])ccc2oc1=O)N1CCOCC1,0.2,4.8%,?,/,4.2%[15.4 µM],-0.5,4.8
Cc1ccc(CCNC(=O)CN2C(=O)COc3ccc(S(=O)(=O)N4CCC(C)CC4)cc32)cc1,-1.9,-3.0%,12.4%,-3.3%&1.3%,-1.9%,2.4&2.0,2.6
C=CCNC(=O)NC(=S)c1ccccc1,-4.3,6.0%,9.9%,-1.5%,10.6%,3.3,-3.8
O=S1(=O)N=C(N2CCOCC2)c2ccccc21,-0.5,3.0%,13.2%,?,6.0%,13.8,0.4
COCCC1CCCCN1Cc1cn(-c2ccccc2)nc1-c1ccc2c(c1)OCO2 (stereo not given),1.6,-3.5%,-8.9%,4.7%,19.5%,52.3,-13.7
COc1ccc(NS(=O)(=O)c2ccc3c(c2)NC(=O)CO3)cc1,4.0,4.7%,12.4%,/,-28.0%,-24.9,16.5
COC(=O)c1ccc(N/C=C\C(=O)c2ccc3c(c2)OCO3)cc1,5.7,14.1%,-8.8%,/,-4.6%[15.4 µM],4.4,6.6
O=C(c1cccs1)N1CCC(C(=O)N2CCN(Cc3ccc4c(c3)OCO4)CC2)CC1,0.7,3.4%,13.5%,/,-5.7%[15.4 µM],-5.3,-12.5
Cc1c(OC(C)C(=O)NCC2CCC(C(=O)O)CC2)ccc2c3c(c(=O)oc12)CCCC3 (stereo not given),3.0,-15.1%,25.5%,3.4%,27.6%,7.6,8.0
COc1ccc2cc(CN(Cc3cccnc3)S(=O)(=O)c3ccccc3)c(=O)[nH]c2c1,1.3,-5.8%,-0.9%,?,-35.0%[inhibitor],14.9,5.4

# Remaining list, next part:
SMILES,Menin MLL FP FL,gsp antagonist,Sfp inh,ClpP mod,gsp agonist,TRPML1 blocker,TRPV1 potentiator
CC(=O)Nc1ccc(S(=O)(=O)Nc2nc3ccccc3nc2Nc2ccc(O)c(C(=O)O)c2)cc1,?,-5.1%,?,-4.9%,-21.0%,-13.5,4.5
FC(F)Oc1ccc(NC(=S)NC2CCCCCCC2)cc1,1.3,-2.1%,-8.1%,/,-12.6%[15.4 µM],27.7,-13.5
O=C(Nc1ccccc1)NC1(C(=O)N2CCN(c3ncccn3)CC2)CCCCC1,-0.9,-0.6%,11.1%,-3.2%,4.3%,8.0,0.1
COc1ccc(C(=O)NNC2=NS(=O)(=O)c3ccccc32)cc1OC,-7.4,14.5%,14.8%,/,-31.1%[inhibitor],-4.2,-0.6
COc1ccc(S(=O)(=O)N2CCN(Cc3ccccc3)CC2)c(C)c1,2.9,-10.1%,-7.4%,-0.1%,-34.2%[inhibitor],6.2,7.6
O=C(CN1CCN(S(=O)(=O)/C=C/c2ccccc2)CC1)Nc1ccccc1N1CCOCC1,2.9,-17.1%,19.2%,/,-10.8%[15.4 µM],1.4,0.4
O=C(NCCCCC(NC(=O)c1ccc([N+](=O)[O-])cc1)C(=O)O)c1ccc([N+](=O)[O-])cc1 (stereo not given),2.0,-4.2%,17.7%,-0.6%,?,-18.1,-2.4
O=C1CC(C(=O)Nc2cccc3ccccc23)C2(CCCC2)O1 (stereo not given),3.1,5.6%,-5.9%,-21.2%,?,6.3,3.9
CCCCOc1ccc(C(=O)NCCc2ccccc2)cc1,-2.3,1.1%,17.1%,1.6%,-15.0%,-8.8,-4.8
CC1CCC2(CC1)NC(=O)N(CC(=O)Nc1ccc(N3CCOCC3)cc1)C2=O (stereo not given),-1.4,6.7%,8.1%,4.2%,3.4%,-1.7,-1.3
